High-throughput results from PubChem BioAssay.
gsp agonist: agonists of gsp mutant (McCune-Albright syndrome) | gsp mutant cells, cAMP HTRF, 30 min; control for the full effect not named in the record | Potency, µM (highest dose often 76.9 µM), without a hit: at the top dose activation (cAMP increase), most hits filed as activators | 0.13% of 340,000 active; active = well fitted activation curve with a large enough effect; inconclusive = small, poorly fitted or top-dose-only effect, or another doubt; inactive = no such curve, though single readings can be large or run the other way; cell line not stated here;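 also: phosphodiesterase inhibitor Ro 20-1724 added with compounds to block cAMP breakdown; potency is read from the fitted curve at half-maximal effect; nearly all actives have a fitted effect of over 60% in size; about a fifth of the inactives were tested at one dose only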
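Cells in DMEM/10% FBS with G418 were pretreated with compounds in DMSO plus […] (300 uM stock) for 30 min at 37C. cAMP was measured by HTRF (cAMP-d2 plus anti-cAMP antibody-K) after 30 min at room temperature.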
Sfp PPTase inh: blocks B. subtilis Sfp PPTase activity. Potency, µM, without a hit: max response, negative = inhibition, actives largely listed as inhibitors. 3.5% of 310,000 active. Biochemical Sfp PPTase activity, qHTS. Q9F4F7. AID 1490; active = well fitted inhibition curve with a large enough effect; inconclusive = small, poorly fitted or top-dose-only effect, or another doubt; inactive = no such curve, though single readings can be large or run the other way;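 also: the enzyme is Sfp with the accession as filed and its product quenches rhodamine fluorescence; potency is read from the fitted curve at half-maximal effect; 0% = enzyme reaction without inhibitor and -100% = no enzyme wells; top concentration of the series not given in the record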
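With Hepes-Na pH 7.6 buffer containing 10 mM MgCl2, Sfp (15 nM) modified BHQ-2-YbbR (12.5 uM) using rhodamine-CoA (5 uM). Two reads 30 minutes apart at 525/598 nm yielded each well's rate.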
PINK1 modulator: changes PINK1 expression | PINK1 immunofluorescence, high-content cytometry, 24 h | Potency, µM (top dose mostly 76.6 µM), inactives show at the highest dose activation (PINK1 increase), hits mostly activators | 0.2% of 410,000 active | AID 624263; active = well fitted activation curve with a large enough effect; inconclusive = small, poorly fitted or top-dose-only effect; inactive = flat fitted curve, though single readings scatter; cell line not stated here;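 also: potency is read from the fitted curve at half-maximal effect; % of control where 0% means no effect; nearly all actives have a fitted effect of over 65% in size; a mitochondrial uncoupler was the plate control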
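Measures PINK1 amount and localization on or inside mitochondria by immunofluorescence. Stable cells get compounds at 5 concentrations for 24 hours before fixation and staining; CCCP controls included.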
gsp antag: antagonizes gsp, the McCune-Albright syndrome mutation; gsp-mutant cells, cAMP HTRF, 30 min; control for the full effect not named in the record; Potency, µM (series often up to 76.9 µM), for inactives: at the highest dose activity change, negative = inhibition, usual class: inhibitors; AID 624288; 0.4% of 340,000 active; active = falling curve of any shape with a large fitted effect; inconclusive = falling curve, mostly with a smaller effect; inactive = flat or rising curve; cell line not stated here;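 also: intracellular cAMP measured with PDE inhibitor Ro 20-1724 present during compound exposure; potency is read from the fitted curve at half-maximal effect; % is scaled to controls: 0 for no effect and ±100 for the full control effect; nearly all actives have a fitted effect of over 65% in size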
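G418-selected cells were plated in DMEM/10% FBS for 16-24 h at 37C, then treated with compounds plus the PDE inhibitor […] (300 uM solution added) for 30 min at 37C. Intracellular cAMP was measured by HTRF after 30 min lysis at room temperature.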
D2 agonist: activates the human D2 dopamine receptor; P14416; DiscoveRx PathHunter D2 beta-arrestin, luminescence, 90 min; 100% = 57 uM dopamine signal; activation, % (no concentration beside the values); 0.084% of 360,000 active; in the data active = activation above about 40%; inconclusive = about 15% to 40%; inactive = below about 15%; also: compound concentration not given in the record; the text of the record calls up to 30% inactive
Target sequence (P14416 whole entry, looked up): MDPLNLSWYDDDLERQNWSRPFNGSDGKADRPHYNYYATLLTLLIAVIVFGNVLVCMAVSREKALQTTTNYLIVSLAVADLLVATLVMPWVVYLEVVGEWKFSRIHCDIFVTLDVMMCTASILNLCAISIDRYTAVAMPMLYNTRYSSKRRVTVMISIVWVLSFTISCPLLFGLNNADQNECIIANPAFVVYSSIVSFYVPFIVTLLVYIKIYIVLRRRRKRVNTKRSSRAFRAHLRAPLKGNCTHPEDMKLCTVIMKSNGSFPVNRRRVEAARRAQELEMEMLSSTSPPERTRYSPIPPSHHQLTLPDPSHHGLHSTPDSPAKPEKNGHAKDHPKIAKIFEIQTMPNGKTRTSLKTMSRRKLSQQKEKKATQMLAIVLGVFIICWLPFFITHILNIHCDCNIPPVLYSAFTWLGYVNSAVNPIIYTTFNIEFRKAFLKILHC
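Agonist mode: compounds alone added to overnight-plated D2 PathHunter cells for 90 min at 37 C, with 57 uM final dopamine (EC100) defining full response. Beta-arrestin recruitment detected by chemiluminescent reagent, read after 1 h at ambient temperature.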
Menin MLL FP FL: displaces fluorescein MLL peptide from human menin; AID 1766; Fluorescence polarization, fluorescein-MLL peptide displacement from menin; FP activity change, % at 61.4 µM; 290,000 tested, under 10 active; inconclusive = falling polarisation curve, or a change in total fluorescence; inactive = total fluorescence flat and polarisation flat or rising; no compound was filed as active; the % refers to the polarisation; negative = inhibition;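 also: % of control where 0% means no effect; inhibitors lower the polarisation; unlabelled MLL peptide was the positive control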
ClpP mod: qHTS Assay for Activators of ClpP; ATP-dependent Clp protease proteolytic subunit (Bacillus subtilis (strain 168)), P80244; purified B. subtilis ClpP, FRET peptide cleavage, 20 min; Potency, µM (doses to about 57.5 µM), for inactives: top-dose activity change, negative = active; 1.9% of 340,000 active; AID 651965, 2013; active = well fitted falling curve with a large enough effect; inconclusive = small, poorly fitted or top-dose-only effect; inactive = no such curve, though single readings can be large or run the other way; also: potency is read from the fitted curve at half-maximal effect; the source files actives as falling curves though it sought activators and does not explain the sign; nearly all actives have a fitted effect of over 65% in size; many hits overshoot -100%
Target sequence (P80244 whole entry, looked up): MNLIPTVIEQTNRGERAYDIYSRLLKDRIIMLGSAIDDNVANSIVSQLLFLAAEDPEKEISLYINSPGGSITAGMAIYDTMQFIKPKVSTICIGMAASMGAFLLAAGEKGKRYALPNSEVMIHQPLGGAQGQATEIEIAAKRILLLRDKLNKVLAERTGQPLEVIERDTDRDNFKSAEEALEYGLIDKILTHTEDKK
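Buffer: 100 mM Tris/HCl pH8, 100 mM KCl, 0.05% low protease BSA, 2.5% glycerol, 0.01% Tween-20. ClpP 10 microg/mL final; 20 min RT; delta FRET normalized to ADEP and DMSO controls.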
* = called active by the depositor; ? = inconclusive; / = no result given; [ ] = remark or other dose.

SMILES	gsp agonist	Sfp PPTase inh	PINK1 modulator	gsp antag	D2 agonist	Menin MLL FP FL	ClpP mod
Cc1nn(Cc2ccc(F)cc2)c(C)c1NC(=O)c1noc2c1CCCCC2	4.8%	23.2%	3.2%[38.3 µM]	-12.5%	0.0	2.4	-4.2%
CC(=O)NC1=NC(=O)/C(=C/N2CCCCC2)S1	-62.0%[inhibitor]	18.2%	1.4%[38.3 µM]	-4.3%	-2.2	-1.1	-10.7%
C[N+]1(CC(O)COCC2COc3ccccc3O2)CCOCC1 (centres undefined)	?	6.7%	-0.8%	4.0%	-8.2	3.5	-4.2%
Cc1c(OCC(=O)NCC2CCC(C(=O)NCCCO)CC2)ccc2c(-c3ccccc3)cc(=O)oc12 (centres undefined)	-8.6%	-13.9%	2.0%	-20.3%	-3.4	-1.8	-1.4%
Cn1cccc1C(=O)OCC(=O)Nc1cc(C(C)(C)C)nn1-c1ccccc1	?	-13.9%	-1.1%	-5.3%	-2.2	0.2	1.9%
COc1ccccc1C(=O)NCC(=O)Nc1ccc2c(c1)CCC2	?	/	1.1%	10.8%	-4.3	/	1.2%
CC(=O)Nc1cccc(C(=O)Nc2cccnc2)c1	-3.8%[15.4 µM]	0.9%	0.0%	3.2%	-2.7	-3.3	/
CCC(=O)NC(=S)NNC(=O)c1ccc(OC)cc1	-4.7%	56.2µM*	/	2.0%	0.2	-2.5	-1.7%
CC1CC(C)CN(CC(O)COCCOc2ccc(Br)cc2)C1 (centres undefined)	-30.0%[inhibitor]	-10.1%	-1.2%	18.6%	0.7	1.8	-1.2%
Cc1nnc(SCC(=O)c2ccc(Cl)cc2)n(N)c1=O	28.8%[15.4 µM]	?	2.0%	-20.2%	-0.2	-1.9	2.3%
CN1CCC(=C2c3ccccc3C(O)c3ccccc32)CC1 (centres undefined)	5.7%	-25.2%	0.9%	6.1%	-7.9	-3.4	-0.8%
CCCCCn1nc(C(=O)N2CCc3ccccc32)c2ccccc2c1=O	?	/	12.9%	?	1.4	/	0.9%
COC(=O)c1ccc(NC(=O)c2sc3nc(-c4ccccc4)cn3c2C)cc1	-31.0%[inhibitor]	7.2%	?	?	-0.8	-0.9	22.7%
Cc1ccc2c(Cl)cc(Cl)c(OCC(=O)Nc3cc(S(=O)(=O)N(C)C)ccc3C)c2n1	27.0%	?	13.3%	-14.9%	6.1	1.8	/
COc1cccc(/C=C2\SC(N3CCCC(C)C3)=NC2=O)c1OC (centres undefined)	26.7%	-10.0%	-0.7%	-8.8%	-4.0	-0.7	-1.1%
CCN(CC)S(=O)(=O)c1ccc2oc(C(=O)NCCN3CCOCC3)c(C)c2c1	-5.2%[15.4 µM]	-5.3%	-0.3%	7.1%	-9.1	-0.5	-0.2%
S=C(NCc1ccco1)Nc1ccc(Cl)c(Cl)c1	-58.7%[inhibitor]	-1.9%	25.2%[38.3 µM]	?	1.1	5.3	-2.0%
O=C(CC1C(=O)NCCN1Cc1ccccc1C(F)(F)F)NC1CCCCCC1 (centres undefined)	-19.0%	-4.4%	1.0%	3.7%	-7.7	4.3	-5.2%
NC(=O)Nc1ccc(C(=O)OCC(=O)NC2CCCc3ccccc32)cc1 (centres undefined)	-4.4%[15.4 µM]	/	1.9%	9.6%	-0.9	/	1.6%
CCC(c1ccccc1)c1noc(CCN(CC)CC)n1 (centres undefined)	-36.0%[inhibitor]	/	0.5%	/	-2.7	/	-2.4%
COc1ccc(NC(=S)N(CCCN2CCOCC2)Cc2ccco2)cc1	-4.3%[15.4 µM]	11.8%	0.9%	2.1%	-5.5	-0.8	/
O=C(C[C@H]1C(=O)N(Cc2cccnc2)C[C@@H]1Cc1ccccc1)Nc1ccccc1	-74.2%[inhibitor]	/	2.8%	/	-7.4	/	1.5%
CC(=O)N1C[C@H]2CON(C)[C@H]2C[C@H]1c1cccc(-c2ccccc2C)c1	/	/	-0.3%	4.3%	-1.0	/	-0.2%
N#Cc1nc(-c2cccs2)oc1NCC1CCCO1 (centres undefined)	21.4%	12.6%	/	4.4%	0.1	3.6	24.4%
CC1(C(=O)NS(=O)(=O)C2CC2)CCN(C(=O)COCc2ccccc2)C1 (centres undefined)	/	/	0.5%	/	-2.5	/	0.2%
(cont.)
SMILES	gsp agonist	Sfp PPTase inh	PINK1 modulator	gsp antag	D2 agonist	Menin MLL FP FL	ClpP mod
C#CCOCCOCCOCCNc1nc(N2CCN(C(=O)[C@H](CCCCN)n3cc(CN)nn3)CC2)nc(N2CCN(C(=O)[C@H](CCCCN)n3cc([C@@H](N)[C@H](C)CC)nn3)CC2)n1	/	/	0.9%	5.7%	-1.1	/	0.9%
C=CCn1c(SCC(=O)NCc2ccc3c(c2)OCO3)nc2scc(-c3ccccc3)c2c1=O	-12.0%	?	-0.6%	-23.4%	1.5	-1.6	8.0%
Cc1ccc(SC[C@H](c2ccccc2)N2CCN(CC(C)C)CCC2=O)cc1	/	3.6%	?	-0.2%	-1.0	6.2	-0.2%
Cc1cc(/C=C(\C#N)C(=O)NCc2ccco2)c(C)n1-c1ccc(C(=O)O)cc1	-8.2%	-2.1%	4.5%	-15.9%	6.4	2.2	/
O=C(CN1C(=O)c2cccc3cccc1c23)Nc1ccc(S(=O)(=O)N2CCOCC2)cc1	0.1%	7.5%	3.9%	-7.0%	-1.6	3.6	?
O=C(/C=C/[C@H]1O[C@@H](n2cnc3c(NC(=O)c4ccccc4)ncnc32)[C@H](O)[C@@H]1O)NCC1CCCO1 (some centres undefined)	/	/	2.2%	/	-5.7	/	-1.2%
CCCCc1ncc(CN2CCC(n3nccc3NC(=O)C(OC)c3ccccc3)CC2)[nH]1 (centres undefined)	-8.2%	8.2%	-0.9%	10.2%	3.8	/	-1.3%
O=C(CSc1nc(=O)n(Cc2ccccn2)c2c1CCC2)Nc1ccc(F)cc1F	19.7%[15.4 µM]	/	2.0%	-8.1%	-1.3	/	/
N#CCCn1cc(C(=O)Nc2ccc(C(=O)O)cc2)c(-c2ccc([N+](=O)[O-])cc2)n1	12.3%	2.7%	0.3%	6.8%	0.1	3.3	/
COc1cccc(/C=N/c2nc3ccccc3n2C)c1O	4.4%[15.4 µM]	0.9%	0.0%	-23.0%	1.6	1.8	0.5%
NC(=O)C1CCN(C(=O)COc2ccc3c4c(c(=O)oc3c2)CCCC4)CC1	/	15.3%	0.0%	7.9%	-5.6	-6.1	4.5%
NC(=O)NC(=O)Nc1ccccc1Cl	-18.4%	-0.6%	-3.8%	-0.3%	1.6	0.5	-2.5%
COc1ccc(N(C)S(=O)(=O)c2ccc(Cl)c(C(=O)NCCc3ccc(Cl)cc3)c2)cc1	10.6%	17.6%	-2.2%	-11.2%	-1.0	10.8	/
Cc1cc(F)ccc1S(=O)(=O)N1CCCCC1CCNC(=O)C(=O)NCc1ccccn1 (centres undefined)	1.0%[15.4 µM]	/	-1.0%	-3.9%	-1.7	/	-4.2%
Cc1cc(C)cc(N2Cc3ccccc3C2)c1	0.9%	11.5%	0.5%	6.7%	3.0	3.2	-0.4%
O=C(c1ccccc1F)N1CCN(Cc2ccccc2F)CC1	0.0%	9.3%	-1.5%	3.6%	-6.8	-1.9	-2.3%
CC1(C)CC(=O)C(C#N)=C(NCCCO)C1	-27.9%	-8.9%	?	4.3%	-1.9	4.7	0.9%
COc1ccc(NC(=O)N(C)C[C@@H]2OCc3cn(nn3)CCCC(=O)N([C@H](C)CO)C[C@H]2C)cc1	14.5%	/	0.3%	/	-10.0	/	0.0%
COc1ccc(CCn2cc(C#N)c(=O)[nH]c2=O)cc1OC	-8.4%	7.1%	-2.9%	-5.9%	1.0	1.5	/
O=C(CCNC(=O)c1ccco1)NCc1ccc(F)cc1	27.3%	/	1.4%	12.5%	-0.5	/	-0.1%
NC(=Nc1c([N+](=O)[O-])cnc2ccccc12)N1CCOCC1	/	/	1.0%	/	-7.6	/	-0.1%
O=C(c1ccco1)N1CCN(C2CC(=O)N(c3ccc4c(c3)OCO4)C2=O)CC1 (centres undefined)	-20.7%	20.5%	-1.8%	-2.2%	-4.1	-0.1	-0.3%
O=C(COC(=O)c1ccc(F)c(S(=O)(=O)N2CCOCC2)c1)NCc1ccccc1	-0.3%[15.4 µM]	/	1.5%	0.9%	-0.3	/	0.0%
Nc1ccc(-n2ccnc2)cc1	0.4%	3.1%	-2.5%	0.4%	-0.2	1.8	-1.0%
O=C(CSc1nc(O)cc(=O)n1C1CCCC1)Nc1cccc(Cl)c1Cl	?	-9.3%	0.7%	-20.0%	-3.8	2.5	-1.5%
(continued)
SMILES	gsp agonist	Sfp PPTase inh	PINK1 modulator	gsp antag	D2 agonist	Menin MLL FP FL	ClpP mod
CCOc1ccc(-c2c(C(=O)N/N=C(\C)c3ccco3)nnn2-c2nonc2N)cc1	-43.7%[inhibitor]	3.5%	3.0%	-2.2%	-4.5	5.2	-25.2%
Cc1ccc(C(=O)N/C(=C/c2ccc(-c3cccc([N+](=O)[O-])c3)o2)C(=O)NCCCN(C)C)cc1	-4.9%[15.4 µM]	-1.6%	-2.1%	-8.3%	5.2	-1.7	/
COC(=O)N1C(=O)[C@](c2ccsc2)(C(C)C)N1C(=O)OC	/	10.7%	0.5%	14.7%	-4.1	-5.0	-1.8%
Cc1cnc(C(=O)OCC(=O)Nc2ccc(Cl)cn2)cn1	14.4%[15.4 µM]	/	2.3%	-0.1%	-1.2	/	/
CC(=O)Nc1ccc(NC(=O)CSc2nnc(NC(=O)c3ccccc3F)s2)cc1	26.3%	/	1.0%	/	-5.3	/	-2.8%
CC(NC(=O)CCc1nnc(-c2ccc(-c3ccccc3)cc2)o1)c1nc2ccccc2[nH]1 (centres undefined)	-4.3%[15.4 µM]	-2.1%	0.9%	-12.9%	-3.7	-0.2	0.5%
COC(=O)c1cc(S(=O)(=O)N(C)C2CCCCC2)oc1C	-4.3%[15.4 µM]	12.7%	0.6%	8.9%	-2.3	-1.2	-1.1%
CCOc1ccc(C(=O)NCC(=O)Nc2cc(C)ccn2)cc1OCC	2.4%	/	1.1%	4.7%	5.0	/	-6.0%
O=C(CCc1c[nH]c2ccccc12)N1CCN(c2ccc(O)cc2)CC1	-9.0%[15.4 µM]	?	-1.5%	-3.8%	14.2	0.5	/
O=C1N/C(=N\N=C\c2cccs2)SC1Cc1cccc(Cl)c1Cl (centres undefined)	-31.8%[inhibitor]	-5.3%	10.3%	15.6%	-0.7	-1.3	?
Cn1ncc(Cl)c1C(=O)N1CCc2ccccc21	-27.3%	4.1%	?	6.5%	-0.7	3.1	0.8%
COc1ccc(OC)c(CN2CCN(S(=O)(=O)c3ccc(NC(C)=O)cc3)CC2)c1	1.4%	56.2µM*	2.3%	11.6%	1.5	1.3	/
